MT1-MMP act inh: inhibitors of human MT1-MMP activation | P50281 | HT1080 RFP-PRO-GFP cells, GFP/RFP ratio fluorescence, overnight; percent of plate control window, DMSO zero | GFP/RFP ratio change, % at 20 µM | 360,000 compounds, 0.061% hits;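 active = GFP/RFP ratio change of at least 30% with cell ATP level not reduced by more than half and red fluorescence within 50% of control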; note: strong numbers were not always called active
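Assay system: RFP-PRO-GFP reporter HT1080 cells; read-out basis: GFP/RFP fluorescence ratio; benchmarks: DMSO wells and RFP-L50D-GFP cells; doses: 20 µM single dose, 1% DMSO; schedule: overnight cell settling, then overnight compound exposure, 37 °C, 5% CO2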
Yeast UUG start: modulators of start codon recognition fidelity in yeast | S. cerevisiae UUG-firefly luciferase reporter, luminescence/redox ratio | AID 602363 | activity score, % at 18.7 µM | 350,000 compounds, 0.13% hits;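 active = replicate mean at a twofold rise or more, about +100% in these data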;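 note: firefly luciferase made from a UUG start codon reports start codon fidelity; reporter light over untreated wells divided by growth signal over untreated wells; some hits fall short of that in this replicate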
eIF4H inh: inhibitors of RNA binding by human eIF4H. eIF4H fluorescence polarization binding assay. inhibition, % at 35 µM. 290,000 compounds, 0.94% hits. AID 2012;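 active = 50% or more with normal probe brightness, or confirmed in later tests; inconclusive = above 50% with abnormal brightness, or retests that disagree; inactive = below 50% or failed in later tests; about a fifth of its hits are not listed in these tables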;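 note: calls also rest on retests at 20 µM and on dose response follow-up; 0% = protein and probe with vehicle and 100% = probe without protein; strong numbers were not always called active; many hits fall short of the cut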
CSC inhib: cancer stem cell inhibition; 300,000 compounds, 1.1% hits; inhibition, % at 7.5 µM; cancer stem cell-like cells viability, luminescence;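 active = mean at 75% or more and at least half the replicates too; inconclusive = mean and replicates disagree; tested in HMLE shEcad cells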;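 note: 0% = median of negative and 100% = median of positive control wells; the first replicate is given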
PABP polyA inh: PABP-poly(A) binding inhibition | P11940 | 290,000 compounds, 1% hits | inhibition, % at 35 µM | PABP-poly(A) RNA binding, fluorescence polarization;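 active = 50% or more with normal probe brightness, or confirmed in later tests; inconclusive = above 50% with abnormal brightness, or retests that disagree; inactive = below 50% or failed in later tests; about a fifth of its hits are not listed in these tables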;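 note: calls also rest on retests at 20 µM and on dose response follow-up; controls were probe without protein and protein plus probe with vehicle; some compounds called inactive have numbers as strong as hits; many hits fall short of the cut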
Target sequence (P11940 whole entry, looked up): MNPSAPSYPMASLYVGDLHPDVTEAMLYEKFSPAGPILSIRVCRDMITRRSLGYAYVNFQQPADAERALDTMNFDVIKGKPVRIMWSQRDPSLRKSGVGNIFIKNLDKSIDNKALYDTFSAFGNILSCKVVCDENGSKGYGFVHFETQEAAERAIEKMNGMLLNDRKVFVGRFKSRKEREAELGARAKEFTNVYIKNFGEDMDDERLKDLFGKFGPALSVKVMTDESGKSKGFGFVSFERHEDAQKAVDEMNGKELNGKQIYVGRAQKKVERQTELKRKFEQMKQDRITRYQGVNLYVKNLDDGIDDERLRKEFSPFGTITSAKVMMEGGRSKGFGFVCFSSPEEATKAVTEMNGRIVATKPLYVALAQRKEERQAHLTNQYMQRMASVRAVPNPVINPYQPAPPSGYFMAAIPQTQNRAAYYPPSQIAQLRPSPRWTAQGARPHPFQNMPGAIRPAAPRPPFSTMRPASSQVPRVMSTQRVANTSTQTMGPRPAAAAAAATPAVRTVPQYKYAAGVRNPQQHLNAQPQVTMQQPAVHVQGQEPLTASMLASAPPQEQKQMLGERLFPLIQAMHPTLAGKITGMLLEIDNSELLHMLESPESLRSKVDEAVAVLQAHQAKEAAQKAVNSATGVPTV
HIV Env fusion: blocks HIV Env-driven cell-cell fusion; HeLa-JRFL Env/CEM21 cell fusion, luciferase; inhibition, % at 12.3 µM; 360,000 compounds, 1.1% hits;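 active = mean replicate inhibition score of at least 50 and every replicate individually at or above 50; inconclusive = only one of the two criteria met; inactive = mean below 50 and not all replicates reaching 50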;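 note: 0% = plate neutral controls and 100% = maraviroc near 300 nM; one replicate is shown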
Rce1 inhib: yeast Ras-converting enzyme inhibition; calls only; Q03530; 290,000 compounds, 0.27% hits; yeast membranes, quenched prenylated peptide cleavage fluorescence;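 active = fall in fluorescence gain of 50% or more versus controls, with final raw signal at or below 3038400; inconclusive = same 50% fall but final raw signal above 3038400; inactive = fall in fluorescence gain under 50%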;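 note: plate controls were neutral control wells for no effect and wells lacking membranes for full effect; tested at 10 µM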
Target sequence (Q03530 whole entry, looked up): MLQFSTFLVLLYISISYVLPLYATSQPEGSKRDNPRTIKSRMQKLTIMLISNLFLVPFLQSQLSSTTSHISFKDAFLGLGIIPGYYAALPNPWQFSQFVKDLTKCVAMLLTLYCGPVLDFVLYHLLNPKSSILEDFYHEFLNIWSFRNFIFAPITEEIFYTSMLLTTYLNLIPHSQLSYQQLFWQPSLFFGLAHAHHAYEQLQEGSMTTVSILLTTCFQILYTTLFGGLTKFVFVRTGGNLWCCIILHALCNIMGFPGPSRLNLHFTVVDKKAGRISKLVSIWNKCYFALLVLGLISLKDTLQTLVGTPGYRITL
MT1-MMP act inh RFP: recorded beside MT1-MMP act inh, whose call it bears; RFP signal change, %; measured here: RFP expression control read;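 0 = vehicle wells; hits needed this value within 50% of zero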
Numbers without * were called inactive; i = inactive; ? = inconclusive; nt = not tested or not shown.

smiles,MT1-MMP act inh,MT1-MMP act inh RFP,Yeast UUG start,eIF4H inh,CSC inhib,PABP polyA inh,HIV Env fusion,Rce1 inhib
COCCNC(=O)CN1CCC(NC(=O)c2ccco2)CC1,4,3,nt,-2,4,7,-15,i
COc1ccc(C(=O)OCC(=O)c2ccc[nH]2)c(OC)c1,0,4,-11,nt,-3,nt,nt,nt
O=C(CSc1nc2ccsc2c(=O)n1CC1CCC(C(=O)O)CC1)c1ccc(Cl)cc1 (configuration not stated),6,0,nt,2,-14,3,10,i
O=[N+]([O-])c1cccc(-c2nnc3ccccn23)c1,nt,nt,nt,13,-8,6,nt,i
O=C(CC(=O)Nc1nc(C23CC4CC(CC(C4)C2)C3)cs1)NCCO,4,-5,-3,2,8,3,8,i
CC(C(=O)Nc1ccc(S(=O)(=O)N2CCCC2)cc1)N1CCN(C(=O)c2ccco2)CC1 (configuration not stated),0,-2,20,2,-8,0,-23,i
CCOc1ccccc1C1N(c2ccc(OC)cc2)C(=O)C2CCCN21 (configuration not stated),3,2,-4,4,-23,-5,10,i
CCCC(Oc1ccc(Br)cc1)c1nc2c3cc(OC)c(OC)cc3nc(=S)n2[nH]1 (configuration not stated),5,-6,nt,13,nt,-1,-8,i
CC(C)OP(=O)(c1ccc(N(C)C)cc1)C(Nc1ccccc1)c1cccnc1 (configuration not stated),6,0,nt,-5,11,1,nt,i
O=C(NN=C1CCCC1)c1cccc(O)c1,nt,nt,4,1,-1,-2,9,i
CC(C)CN(C(=O)COC(=O)c1ccccc1NCc1ccco1)c1c(N)n(Cc2ccccc2)c(=O)[nH]c1=O,-22,-18,-8,nt,-10,nt,nt,i
CCC(C(=O)NC1CCCC1)N(C(=O)Cn1nnc(-c2ccc(C)o2)n1)c1ccccc1OC (configuration not stated),1,1,-1,0,-3,2,-1,i
Cc1ccc(-c2nc(N3CCOCC3)sc2C(=O)N2CCOCC2)cc1,1,3,nt,1,-5,9,nt,i
Cc1nc(-c2cc(C#N)c(Sc3cccc(C(F)(F)F)c3)nc2C)cs1,-1,-4,-10,9,-5,5,8,i
O=C(CNCCc1ccc(Cl)cc1)Nc1ccc(C(=O)N2CCCCC2)cc1,-3,-5,-5,-12,14,6,7,i
CC(=O)NC(CC(=O)O)c1ccccc1 (configuration not stated),11,6,-8,-16,-12,-3,-4,i
NC(=O)c1c(NC(=O)C2CCCO2)sc2c1CCCCC2 (configuration not stated),-4,1,-2,12,-15,-13,15,i
O=S(=O)(NCC(c1ccc2c(c1)OCO2)N1CCN(c2ccccc2)CC1)c1ccccc1 (configuration not stated),2,-2,-4,nt,4,nt,-25,i
Cc1ccc2cc3cc(C(=O)NCCC(C)C)oc3nc2c1,6,-9,-15,-6,52,6,nt,i
CN1C2=NCCN2C(=O)c2ccccc21,3,0,-13,-6,-8,15,nt,i
Cn1c(SCc2nnc(-c3ccc(F)cc3)o2)nnc1C1COc2ccccc2O1 (configuration not stated),nt,nt,11,0,-11,-8,-18,i
COc1ccc(-c2nc(N3CCOCC3)nc3n[nH]c(N)c23)cc1,-12,-6,nt,-5,-14,4,?,i
O=C(Nc1cccc(F)c1)c1ccc(-n2cncn2)c2ccoc12,0,4,-44,nt,nt,nt,-225,nt
COc1cc(-c2nnc(SCc3cc(=O)oc4cc(C)ccc34)o2)cc(OC)c1OC,7,0,nt,2,-8,8,21,i
CCOc1ncccc1C(=O)Nc1ccc(F)c(F)c1,-3,-1,nt,2,-5,6,-10,i

Shown field by field: entries from further up.
> NC(=O)c1c(NC(=O)C2CCCO2)sc2c1CCCCC2 (configuration not stated)
  MT1-MMP act inh = -4; MT1-MMP act inh RFP = 1; Yeast UUG start = -2; eIF4H inh = 12; CSC inhib = -15; PABP polyA inh = -13; HIV Env fusion = 15; Rce1 inhib = i
> O=S(=O)(NCC(c1ccc2c(c1)OCO2)N1CCN(c2ccccc2)CC1)c1ccccc1 (configuration not stated)
  MT1-MMP act inh = 2; MT1-MMP act inh RFP = -2; Yeast UUG start = -4; eIF4H inh = nt; CSC inhib = 4; PABP polyA inh = nt; HIV Env fusion = -25; Rce1 inhib = i
> Cc1ccc2cc3cc(C(=O)NCCC(C)C)oc3nc2c1
  MT1-MMP act inh = 6; MT1-MMP act inh RFP = -9; Yeast UUG start = -15; eIF4H inh = -6; CSC inhib = 52; PABP polyA inh = 6; HIV Env fusion = nt; Rce1 inhib = i
> CN1C2=NCCN2C(=O)c2ccccc21
  MT1-MMP act inh = 3; MT1-MMP act inh RFP = 0; Yeast UUG start = -13; eIF4H inh = -6; CSC inhib = -8; PABP polyA inh = 15; HIV Env fusion = nt; Rce1 inhib = i

Sorted by length of the SMILES (largest number first): 3 of the compounds above
smiles,MT1-MMP act inh,MT1-MMP act inh RFP,Yeast UUG start,eIF4H inh,CSC inhib,PABP polyA inh,HIV Env fusion,Rce1 inhib
COc1cc(-c2nnc(SCc3cc(=O)oc4cc(C)ccc34)o2)cc(OC)c1OC,7,0,nt,2,-8,8,21,i
O=C(CNCCc1ccc(Cl)cc1)Nc1ccc(C(=O)N2CCCCC2)cc1,-3,-5,-5,-12,14,6,7,i
COc1ccc(-c2nc(N3CCOCC3)nc3n[nH]c(N)c23)cc1,-12,-6,nt,-5,-14,4,?,i

Next part
smiles,MT1-MMP act inh,MT1-MMP act inh RFP,Yeast UUG start,eIF4H inh,CSC inhib,PABP polyA inh,HIV Env fusion,Rce1 inhib
Cc1c(OCC(=O)NC2CC(C)(C)NC(C)(C)C2)ccc2c1oc(=O)c1ccccc12,10,3,-19,-4,-4,13,-19,i
CC1(C(=O)NCc2cccs2)CCN1CCc1ccccc1 (configuration not stated),2,4,-1,nt,nt,nt,?,nt
COc1ccc(-n2nc(C(=O)Nc3ccc(OC)c(OC)c3)c3c4ccccc4n(C)c3c2=O)cc1,5,1,-13,2,-2,-24,-6,i
CCCCc1c(O)nc(SCC(=O)NCCc2ccc(OC)c(OC)c2)[nH]c1=O,-4,8,-4,0,-14,-2,nt,i
O=C(Cc1cccc(NC(=O)C2CCN(C(=O)CCc3ccccc3)CC2)c1)Nc1cccc(C(=O)N2CCOCC2)c1,0,0,-2,nt,nt,nt,-9,nt
Cc1ccccc1OCCCN1C(=O)C(=O)c2cccc(C)c21,1,4,-9,3,26,-2,-149,i
CCOC(=O)N1CCN(c2cc(NCCC(=O)O)c3c4c(onc24)-c2ccccc2C3=O)CC1,-37,64,-2,86*,36,73*,nt,nt
CCOC(=O)c1c(NC(=O)c2cccs2)sc2c1CCC2,-1,1,-17,-10,24,7,nt,i
CCN(CCCNC(=O)Cn1ncc2c([nH]c3ccc(C)cc32)c1=O)c1ccccc1,1,1,13,-15,-13,-7,9,i
O=C(CCc1nnc2ccc(NCc3ccco3)nn12)N1CCN(c2ccccc2F)CC1,-1,1,-12,19,-4,7,2,i
Cc1ccccc1C(=O)NC(=S)Nc1ccccc1C(F)(F)F,-4,-5,-11,-2,-7,-5,nt,i
Fc1cccc(CO/N=C/c2c(-c3ccccc3)nc3ccc(Cl)cn23)c1,-13,-13,-7,-5,nt,6,-29,i
CCOC(=O)C1CCN(C(=O)Nc2ccc3snnc3c2)CC1,-3,-1,20,-18,14,3,nt,i
Cc1nc2sccn2c(=O)c1S(=O)(=O)N1CCN(c2ccc(F)cc2)CC1,2,4,-19,0,-6,-10,13,i
COc1ccc(C(=O)NC(=S)Nc2ccc3oc(=O)ccc3c2)cc1[N+](=O)[O-],-2,-2,-7,-5,12,-8,31,i
COc1ccc(C)cc1NC(=O)CCCNC(=O)Cn1cnc2sc(C)c(C)c2c1=O,-1,-2,-6,0,-3,-7,-6,i
COc1ccc(OC)c(/C=C2\SC(=S)N(Cc3cccnc3)C2=O)c1,-84,0,-10,?,52,4,0,i
COc1cccc(Nc2nc(-c3sc(NC(=O)c4ccccc4)nc3C)cs2)c1,-5,1,0,-6,7,-3,2,i
COc1ccc(C(=O)NC(=S)Nc2ccc3c(c2)Cc2ccccc2-3)cc1,-7,-8,-14,5,5,-6,nt,i
O=C(c1ccc2c(c1)N(Cc1ccccc1F)C(=O)c1ccccc1S2(=O)=O)N1CCCC1,-4,1,13,-3,-3,-3,3,i
COc1cc(=O)[nH]c(SCc2c(F)c(F)c(F)c(F)c2F)n1,-4,3,1,3,-4,7,32,i
O=C(CCNS(=O)(=O)c1ccc(Br)cc1)NCC(c1cccs1)N1CCOCC1 (configuration not stated),0,-1,5,nt,nt,nt,10,nt
CC1(C)C(C(N)=O)C(=O)NC(=O)C1C(N)=O (configuration not stated),-2,1,-1,nt,nt,nt,2,nt
CC1CCCC(C)N1C(=O)COC(=O)CNC(=O)c1ccc(Cl)cc1Cl (configuration not stated),2,-1,nt,nt,-8,nt,-6,i
O=C(Nc1ccc(Cl)c(Cl)c1)N1CCSC1c1ccco1 (configuration not stated),3,-1,-18,2,40,-2,22,i

(continued)
smiles,MT1-MMP act inh,MT1-MMP act inh RFP,Yeast UUG start,eIF4H inh,CSC inhib,PABP polyA inh,HIV Env fusion,Rce1 inhib
Cc1nc2cc(NCc3nc4ccccc4n3Cc3ccccc3)ccc2n1C,3,1,nt,-8,-2,-13,nt,i
O=C(NCc1ccc(F)cc1)C1CCCN1C(=O)NCc1ccccc1 (configuration not stated),-1,4,nt,-6,-3,-14,-52,i
C(=Cc1cccnc1)c1ccncc1,-8,-2,6,nt,nt,nt,12,nt
Cc1cccc(NC(=O)CCCCC(=O)Nc2cccc(C)c2)c1,2,2,-18,nt,-12,nt,6,i
COc1ccc(NC(=S)N(CCCN2CCOCC2)Cc2cn(C)c3ccccc23)cc1OC,10,7,-16,-4,-10,-8,nt,i
COc1ccccc1CNC(=O)c1ccccc1NS(C)(=O)=O,1,1,10,0,nt,1,-11,i
C/C(=N/NC(=O)CNc1ccc(C)cc1)c1ccc(Cl)cc1,-2,0,-8,-12,nt,-2,nt,i
Cc1cc(OCC(=O)OCC(=O)N(C)Cc2ccccc2C)ccc1Cl,2,3,-2,nt,-8,nt,nt,nt
O=C(CCNS(=O)(=O)c1ccc(Br)s1)NCc1ccc2c(c1)OCO2,1,3,nt,3,-19,-7,6,i
C#CCOc1c(Br)cc(/C=C2/C(=O)ON=C2C)cc1OC,3,-1,-4,-5,-10,16,11,i
Cc1ccc(NCC(O)C(O)C(O)CO)c(N=Nc2ccccc2)c1C (configuration not stated),10,3,nt,-3,6,-7,-20,i
COc1ccc(OC)c(CCNC(=O)CS(=O)(=O)Cc2nc(-c3ccc(C)cc3)oc2C)c1,8,-2,-20,1,-2,-10,13,i
